Assay outcomes (PubChem BioAssay)
HIV Env fusion = HIV envelope-mediated fusion inhibition | 360,000 compounds, 1.1% hits | HeLa-JRFL Env/CEM21 cell fusion, luciferase | inhibition, % at 12.3 µM;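 active = mean replicate inhibition score of at least 50 and every replicate individually at or above 50; inconclusive = only one of the two criteria met; inactive = mean below 50 and not all replicates reaching 50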;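 also: 0% = plate neutral controls and 100% = maraviroc near 300 nM; one replicate is shown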
Rce1 inh = inhibitors of yeast Ras-converting enzyme; calls only; 290,000 compounds, 0.27% hits; yeast membranes, quenched prenylated peptide cleavage fluorescence; Q03530;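 active = fall in fluorescence gain of 50% or more versus controls, with final raw signal at or below 3038400; inconclusive = same 50% fall but final raw signal above 3038400; inactive = fall in fluorescence gain under 50%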;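 also: plate controls were neutral control wells for no effect and wells lacking membranes for full effect; tested at 10 µM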
Target sequence (Q03530 whole entry, looked up): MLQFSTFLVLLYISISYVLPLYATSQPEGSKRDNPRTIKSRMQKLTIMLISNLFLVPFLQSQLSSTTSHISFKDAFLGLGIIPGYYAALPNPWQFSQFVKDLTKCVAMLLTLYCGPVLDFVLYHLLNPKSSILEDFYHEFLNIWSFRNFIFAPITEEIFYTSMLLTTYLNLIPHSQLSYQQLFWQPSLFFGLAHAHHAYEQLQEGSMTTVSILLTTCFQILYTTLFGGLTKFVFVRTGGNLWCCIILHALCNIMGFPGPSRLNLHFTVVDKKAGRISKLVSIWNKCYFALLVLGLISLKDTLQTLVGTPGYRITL
MT1-MMP act inh = blocks activation of human MT1-MMP. HT1080 RFP-PRO-GFP cells, GFP/RFP ratio fluorescence, overnight; percent of plate control window, DMSO zero. GFP/RFP ratio change, % at 20 µM. 360,000 compounds, 0.061% hits;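 active = GFP/RFP ratio change of at least 30% with cell ATP level not reduced by more than half and red fluorescence within 50% of control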; also: strong numbers were not always called active
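Assay system: HT1080 RFP-PRO-GFP cells | Dosing: 20 µM single dose, 1% DMSO | Incubation: Cells overnight before dosing, compound overnight, 37 °C, 5% CO2 | Evaluation: GFP/RFP fluorescence ratio | Control set: DMSO-only wells and HT1080 RFP-L50D-GFP cell wells as references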
eIF4H FP inh = inhibitors of RNA binding by human eIF4H; Q15056; eIF4H fluorescence polarization binding assay; inhibition, % at 35 µM; 290,000 compounds, 0.94% hits; AID 2012;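 active = 50% or more with normal probe brightness, or confirmed in later tests; inconclusive = above 50% with abnormal brightness, or retests that disagree; inactive = below 50% or failed in later tests; about a fifth of its hits are not listed in these tables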;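 also: calls also rest on retests at 20 µM and on dose response follow-up; 0% = protein and probe with vehicle and 100% = probe without protein; strong numbers were not always called active; many hits fall short of the cut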
UUG fidelity = yeast start codon fidelity modulation; S. cerevisiae UUG-firefly luciferase reporter, luminescence/redox ratio; activity score, % at 18.7 µM; 350,000 compounds, 0.13% hits;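 active = replicate mean at a twofold rise or more, about +100% in these data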;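 also: firefly luciferase made from a UUG start codon reports start codon fidelity; reporter light over untreated wells divided by growth signal over untreated wells; some hits fall short of that in this replicate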
PABP polyA inh = PABP-poly(A) binding inhibition | P11940 | PABP-poly(A) RNA binding, fluorescence polarization | inhibition, % at 35 µM | 290,000 compounds, 1% hits;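 active = 50% or more with normal probe brightness, or confirmed in later tests; inconclusive = above 50% with abnormal brightness, or retests that disagree; inactive = below 50% or failed in later tests; about a fifth of its hits are not listed in these tables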;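 also: calls also rest on retests at 20 µM and on dose response follow-up; controls were probe without protein and protein plus probe with vehicle; some compounds called inactive have numbers as strong as hits; many hits fall short of the cut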
Target sequence (P11940 whole entry, looked up): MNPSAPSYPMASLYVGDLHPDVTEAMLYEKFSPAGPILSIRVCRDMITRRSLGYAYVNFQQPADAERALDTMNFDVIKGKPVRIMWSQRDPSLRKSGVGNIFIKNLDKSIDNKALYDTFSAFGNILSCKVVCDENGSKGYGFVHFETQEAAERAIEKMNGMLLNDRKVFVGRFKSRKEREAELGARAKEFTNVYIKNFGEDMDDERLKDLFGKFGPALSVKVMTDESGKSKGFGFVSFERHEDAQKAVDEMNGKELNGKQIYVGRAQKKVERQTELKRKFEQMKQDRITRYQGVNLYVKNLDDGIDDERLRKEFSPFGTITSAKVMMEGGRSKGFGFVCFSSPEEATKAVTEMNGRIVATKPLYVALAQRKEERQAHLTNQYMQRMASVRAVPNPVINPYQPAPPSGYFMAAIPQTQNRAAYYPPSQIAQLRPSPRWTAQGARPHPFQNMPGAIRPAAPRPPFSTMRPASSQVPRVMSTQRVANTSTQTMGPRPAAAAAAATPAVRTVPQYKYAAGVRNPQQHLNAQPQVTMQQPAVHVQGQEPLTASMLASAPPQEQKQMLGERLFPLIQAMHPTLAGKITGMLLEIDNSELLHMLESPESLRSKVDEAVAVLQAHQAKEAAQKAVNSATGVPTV
CSC inhib = blocks cancer stem cells; cancer stem cell-like cells viability, luminescence; inhibition, % at 7.5 µM; 300,000 compounds, 1.1% hits; AID 2717;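 active = mean at 75% or more and at least half the replicates too; inconclusive = mean and replicates disagree; tested in HMLE shEcad cells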;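 also: 0% = median of negative and 100% = median of positive control wells; the first replicate is given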
eIF4H FP inh retest = also measured in eIF4H FP inh; calls as there; inhibition, %; compound at 20 µM; confirmation average;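 mean of two retest wells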
PABP polyA inh retest = further read-out of PABP polyA inh, marked with its call; inhibition, %; compound at 20 µM; confirmation repeats;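 mean of two retest wells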
MT1-MMP act inh RFP = further read-out of MT1-MMP act inh, marked with its call; RFP signal change, %; measured here: RFP expression control read;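 0 = vehicle wells; hits needed this value within 50% of zero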
Numbers without * were called inactive; i = inactive; ? = inconclusive; / = not tested or not shown. Only part of the results is shown; count on the stated rates, not on these rows.

SMILES	HIV Env fusion	Rce1 inh	MT1-MMP act inh	MT1-MMP act inh RFP	eIF4H FP inh	UUG fidelity	PABP polyA inh	CSC inhib	others
CC1CCCN(S(=O)(=O)Cc2ccc(Cl)cc2)C1 (stereo not drawn)	/	i	-6	-1	-5	-6	4	-7
O=C(c1ccc(Cl)c(S(=O)(=O)N2CCOCC2)c1)N(Cc1ccco1)Cc1cccs1	-8	/	0	-7	/	-4	/	/
CCOC(=O)C1=C(C)NC(=O)NC1c1ccc(OC(C)C(=O)O)c(OC)c1 (stereo not drawn)	/	i	-4	3	-1	-14	6	-2
Cc1ccc(-c2nnc(COC(=O)c3cccs3)o2)cc1	-20	i	-3	4	-7	-14	2	-14
CCCCn1c(-c2csc3c2CCCC3)n[nH]c1=S	-43	i	/	/	-4	/	0	-11
Cc1ccnc(-n2sc3ccccc3c2=O)n1	i	i	-37	0	14	-38	8	9
CCOC(=O)C1CCCN(C2CC(=O)N(c3ccc(C)c(C)c3)C2=O)C1 (stereo not drawn)	/	i	-4	1	-11	/	9	10
N#CC1(P(=O)(c2ccccc2)c2ccccc2)CC1	/	i	4	8	1	-10	0	-10
Cc1sc(NC(=O)CN2CCOCC2)c(C(=O)c2ccccc2)c1C	-29	i	-7	0	1	-5	-1	16
CC(=O)C1=NN(c2ccc(Cl)cc2)C(c2ccc3c(c2)OCO3)N(C(C)=O)N1C (stereo not drawn)	16	i	-8	-7	-5	/	1	23
COc1ccccc1N1CCN(C(=O)c2cc(C(C)(C)C)oc2C)CC1	-15	i	-3	3	4	9	-5	-3
CCc1ccc(OS(=O)(=O)c2cn(C)c(=O)n(C)c2=O)cc1	-3	i	3	-2	-5	/	-3	-5
COc1ccc(NC(=O)c2cc3ccc4c5ccccc5[nH]c4c3cc2O)cc1	8	i	0	-1	8	-10	9	1
C#CCn1cc(C=C2C(=O)c3ccccc3C2=O)c2ccccc21	-6	i	-15	4	?	/	-11	/
Cc1cccnc1NC(=S)Nc1ccc(Br)cc1Cl	-95	i	3	1	2	-22	1	-2
CC(C)NC(=O)C1(c2ccccc2)CCOCC1	/	i	2	4	-7	-14	5	4
CC1=C(C(=O)N(C(C)C)C(C)C)CC(CC(=O)NC2CC2)C(=O)N1CCC1=CCCCC1 (stereo not drawn)	15	/	1	3	/	1	/	/
C[C@H]1[C@H]2c3nc4ccccc4n3C[C@H]1ON2C1CCCCC1	-317	i	-1	2	-8	-14	0	13
CCN1C(=O)C(C)S/C1=N\S(=O)(=O)c1ccc(Cl)s1 (stereo not drawn)	/	i	4	6	-2	-6	1	/
CC(=O)c1cccc(-c2ccnc3c2CC(C(=O)Nc2cccc(N(C)C)c2)O3)c1 (stereo not drawn)	-6	/	-3	-13	/	-4	/	/
CSC(=NNC(=O)c1ccc(O)cc1)SC	/	i	8	7	-12	-11	-15	-5
Cn1cccc1/C=N/N1CCN(c2ccccc2)CC1	-27	i	2	4	-4	/	1	-17
CC1Sc2ccc(C(=O)N3CCCC(C(F)(F)F)C3)cc2NC1=O (stereo not drawn)	6	i	-7	-11	/	-16	/	-10
COc1ccc(N2CCN(C(=N)/C(C(C)=O)=C(\C)O)CC2)cc1	-9	i	0	1	6	-16	0	-2
CSc1ccc(-c2nc(CN(C)C3CCOC3)c(C)o2)cc1 (stereo not drawn)	-37	i	-1	0	1	-15	0	-4

(next part)
SMILES	HIV Env fusion	Rce1 inh	MT1-MMP act inh	MT1-MMP act inh RFP	eIF4H FP inh	UUG fidelity	PABP polyA inh	CSC inhib	others
Clc1ccc(-c2nc3ccccn3c2CN2CCOCC2)cc1	28	i	-4	-4	4	/	-1	-2
COc1cc(/C=C2\SC(=Nc3ccc(O)cc3)NC2=O)cc(OC)c1OC	-60	i	/	/	3	/	-8	60
O=C(Nc1ccccc1Cl)c1cc(C2CCCCN2C(=O)C2CCCCC2)on1 (stereo not drawn)	16	/	-6	-6	/	-16	/	/
O=C(NCCCCCCNC(=O)c1ccccc1O)c1ccccc1O	8	i	-1	-14	1	-17	6	27
COc1ccc(S(=O)(=O)NCC(=O)N(CC(=O)NCc2ccco2)C2CCCC2)cc1	-6	i	3	3	-8	-2	2	12
O=C(CC1Nc2cccc3cccc(c23)NC1=O)Nc1ccccc1 (stereo not drawn)	-95	i	4	-3	?	/	19	1
Cn1ncc(Br)c1NC(=O)CSc1ccc(Cl)cc1	6	i	-1	-23	-5	/	10	-5
O=C(NC1CCCC1)C(c1ccncc1)N(C(=O)c1csnn1)c1cccc(F)c1 (stereo not drawn)	5	i	-1	-1	-2	-6	3	-7
O=C(COc1ccc(Cl)cc1Cl)Nn1c(=S)[nH]c2ncccc2c1=O	-2	i	5	6	-7	-1	4	/
CCC(=O)Nc1cccc(C(=O)N(Cc2ccccc2)Cc2ccccc2)c1	4	i	1	-3	0	-21	18	-4
Cn1c(=O)c2c(ncn2CCCNC2=CC(C)(C)CC(=O)C2)n(C)c1=O	/	i	/	/	-8	/	0	/
Cc1cc(CN(C)Cc2c(C(=O)N3CCCCCCC3)nc3ccc(Cl)cn23)n[nH]1	6	i	-1	1	-6	/	-5	-22
Cc1cccc(NC(=O)CSc2nnc(-c3ccccc3C)o2)c1	-306	/	1	3	-9	-19	24	/
COC(=O)[C@@]1(Cc2ccc(OC)cc2)[C@H]2c3cc(C(=O)N4CCCC4)n(CCSCCO)c3C[C@H]2CN1C(=O)c1ccccc1	/	/	/	/	-17	/	-4	-23
CCCCSc1nnc(-c2ccccc2NC(C)=O)c(=O)[nH]1	3	i	-1	4	-2	/	0	-13
Cn1c(O)c(N=NC(=O)Cn2c(C(F)(F)F)nc3ccccc32)c2ccccc21	7	i	3	2	-3	/	-14	-44
CCc1ccccc1NC(=O)CN1CCN(CC(=O)NCc2ccc(Cl)cc2)CC1	/	/	4	-6	/	-9	/	-9
Cc1ccc(C)c(-n2[nH]c3c4c(ccc3c2=O)C(=O)c2ccccc2C4=O)c1	12	i	6	-4	11	-19	1	48
COc1ccc2nc(Nc3nc(-c4ccncc4)cs3)sc2c1	-8	i	-2	-2	-2	-12	-1	2
CSc1ncccc1C(=O)N1CCN(S(=O)(=O)c2ccc3ccccc3c2)CC1	-10	/	1	-6	/	11	/	-19
Cc1ccc(O)c(C(=O)c2cnc(/N=C(\N)N(C)C)nc2)c1	-13	i	-5	-5	-3	-10	5	/
CCc1cc(C(=O)NNC(=S)NCc2ccccc2)cs1	-43	i	-2	1	0	-26	-2	-2
CSc1nc2ccc(NC(=O)c3c(-c4ccccc4)noc3C)cc2s1	-4	i	1	-5	-2	/	-8	-1
COc1ccc(NC(=O)CSc2nc3ccsc3c(=O)n2CCCCCC(=O)O)cc1	2	i	1	1	-10	/	-12	-7
CCc1nn(C(C)C(=O)NCc2ccc(Cl)cc2)c(=O)c2cc3occc3n12 (stereo not drawn)	-1	i	1	2	-5	-16	1	6

More compounds
SMILES	HIV Env fusion	Rce1 inh	MT1-MMP act inh	MT1-MMP act inh RFP	eIF4H FP inh	UUG fidelity	PABP polyA inh	CSC inhib	others
COc1ccc(S(=O)(=O)NCC(c2ccc(F)cc2)N2CCOCC2)cc1Br (stereo not drawn)	-20	/	0	0	/	-3	/	/
CC1(C(=O)NS(=O)(=O)c2ccc(F)cc2F)CCN1C(=O)Cc1ccccc1 (stereo not drawn)	7	/	-2	3	/	-5	/	/
Cc1ccc(NC(=O)NNC(=O)Cn2nc(-c3ccccc3)c(-c3ccccc3)c(C#N)c2=O)cc1	/	i	-1	-16	-1	-18	-12	18
Cc1cc(F)ccc1S(=O)(=O)N(CC(=O)N1CCOCC1)CC(=O)N1CCOCC1	10	/	-3	1	/	-5	/	-14
CC(C)CNC(=O)c1cccc(NC(=O)C(C)C)c1	2	i	0	5	-2	/	16	4
Cc1ccccc1C1NC(=S)NC2=C1C(=O)CC(C)(C)C2 (stereo not drawn)	-8	i	2	3	-1	/	0	2
COc1ccc(S(=O)(=O)Nc2cc(C(=O)NC3CCCCCC3)ccc2N2CCOCC2)cc1	/	/	-4	-8	-16	-20	1	5
COc1ccc(OCc2cc(C(=O)NCCN3CCCC(O)C3)no2)c(Cl)c1 (stereo not drawn)	1	i	3	0	2	-8	-4	-4
COCCNC(=O)c1ccc(S(=O)(=O)c2ccc(Cl)cc2)c(NC(C)=O)c1	3	i	4	2	3	-5	-1	/
Cc1ccc(NC(=O)C(C)N=C2NS(=O)(=O)c3ccccc32)cc1F (stereo not drawn)	-1	i	2	-4	-8	-9	3	-9
c1ccc(N2CCN(Cc3nnnn3C3CCCCC3)CC2)cc1	-16	i	3	1	3	0	2	-4
Cc1nc2nc(SCC(=O)C(C)(C)C)[nH]c2cc1Br	/	i	-4	-8	-4	6	2	-4
CCOc1ccc(NC(=O)CN(C)C(=O)c2cccnc2Sc2ccc(C)cc2C)cc1OCC	12	/	-2	2	/	-5	/	/
O=C(c1cc(-c2ccncc2)nc2ccc(Br)cc12)N1CCN(Cc2ccc3c(c2)OCO3)CC1	6	i	-9	-13	3	/	-9	-7
CC(=O)c1ccc(S(=O)(=O)N2CCN(C(=O)/C=C/c3ccc4ccccc4n3)CC2)cc1	21	/	-12	-12	61	-6	9	-2	eIF4H FP inh retest=28;PABP polyA inh retest=45
C/C=C/c1ccc(OCCOc2cc(C=O)ccc2OC)c(OC)c1	/	i	5	-2	-2	/	-2	-14
CCc1cccc(NC(=O)COC(=O)c2c(C)nn(-c3ccccc3)c2C)c1	14	/	6	-2	/	-6	/	/
COc1ccc(-n2c(SCC(=O)Nc3ccc(C(N)=O)cc3)nc3c([nH]c4ccccc43)c2=O)cc1OC	1	i	14	14	-6	-8	-10	-5
COc1ccccc1NC(=O)c1cccc2c(Br)cccc12	-6	i	-1	-3	-15	1	0	12
Clc1ccc(-c2cc(C3CCNCC3)[nH]n2)cc1	2	i	-1	-3	12	/	2	4
Cc1ccc(C)c(N2CCN(S(=O)(=O)c3ccc4c(c3)oc(=O)n4C)CC2)c1	-45	i	-3	-6	-1	-15	1	9
O=C(O)/C=C/c1ccc(S(=O)(=O)NCc2ccco2)cc1	-11	i	-3	3	7	/	4	4
COc1ccc(S(=O)(=O)N2CCC(C(N)=O)CC2)cc1	-9	i	5	5	/	-1	/	-10
O=C(CCN1CCCCC1)c1ccccc1	/	i	-1	-1	3	-8	-15	8
COC(=O)c1ccccc1NC(=O)CN(c1ccc(OC)cc1)S(C)(=O)=O	-24	i	1	-5	-6	-1	-17	-2

More results follow:
SMILES	HIV Env fusion	Rce1 inh	MT1-MMP act inh	MT1-MMP act inh RFP	eIF4H FP inh	UUG fidelity	PABP polyA inh	CSC inhib	others
Cc1cccc(C(=O)O/N=C(\N)c2cccc([N+](=O)[O-])c2)c1	/	i	1	2	1	-16	3	-13
COc1cccc(NC(=O)CN(C)C(=O)c2cn(-c3ccccc3)nc2-c2cccs2)c1	/	i	1	-4	/	6	/	12
CC1CCCCN1C(=O)Cn1cc(C#N)c2ccccc21 (stereo not drawn)	/	i	6	5	-2	-2	-5	-1
CC1CCC/C=C/C(=O)c2c(O)cc(O)cc2CC(=O)O1 (stereo not drawn)	/	i	2	-29	29	-16	21	40
CC(=O)N1CCN(c2ccc(NC(=O)c3ccc4ccccc4c3)cc2)CC1	-7	i	2	-5	2	-8	-1	/
CCN1CCCC1CNC(=O)CN(C)S(=O)(=O)c1ccc(Cl)cc1 (stereo not drawn)	6	i	-1	4	-4	-14	11	7
C/C(=N\NC(=O)c1cccc(Br)c1)c1ccccn1	?	i	12	3	-4	-33	-1	139*
